# Bioassay records (PubChem BioAssay)
# gsp antag = antagonizes gsp, the McCune-Albright syndrome mutation | gsp-mutant cells, cAMP HTRF, 30 min; control for the full effect not named in the record | Potency, µM (highest dose often 76.9 µM), for the others: at the top dose activity change, negative = inhibition, hits mostly inhibitors | hit rate 0.4% among 340,000 | AID 624288; active = falling curve of any shape with a large fitted effect; inconclusive = falling curve, mostly with a smaller effect; inactive = flat or rising curve; cell line not stated here;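 also: intracellular cAMP measured with PDE inhibitor Ro 20-1724 present during compound exposure; potency is read from the fitted curve at half-maximal effect; % is scaled to controls: 0 for no effect and ±100 for the full control effect; nearly all actives have a fitted effect of over 65% in size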
#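 Measurement of cellular cAMP by homogeneous time-resolved fluorescence following a 30 min compound exposure at 37C. The PDE inhibitor […] was present throughout; the assay buffer was DPBS with 0.05% BSA and 0.005% Tween 20.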
# ClpP mod = qHTS Assay for Activators of ClpP. purified B. subtilis ClpP, FRET peptide cleavage, 20 min. Potency, µM (series often up to 57.5 µM), inactives show at the highest dose activity change, negative = active. hit rate 1.9% among 340,000. ATP-dependent Clp protease proteolytic subunit (Bacillus subtilis (strain 168)), P80244; active = well fitted falling curve with a large enough effect; inconclusive = small, poorly fitted or top-dose-only effect; inactive = no such curve, though single readings can be large or run the other way; also: potency is read from the fitted curve at half-maximal effect; the source files actives as falling curves though it sought activators and does not explain the sign; nearly all actives have a fitted effect of over 65% in size; many hits overshoot -100%
# Target sequence (P80244 whole entry, looked up): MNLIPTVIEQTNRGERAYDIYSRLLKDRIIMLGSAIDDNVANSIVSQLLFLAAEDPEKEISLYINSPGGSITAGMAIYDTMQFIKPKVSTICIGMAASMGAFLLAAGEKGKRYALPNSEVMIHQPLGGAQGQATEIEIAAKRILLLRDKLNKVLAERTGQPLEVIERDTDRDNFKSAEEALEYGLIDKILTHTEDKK
#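 ClpP 10 microg/mL final, pH 8 Tris/KCl buffer with BSA, glycerol, Tween-20; compound pinned in; FRET-FV substrate; RT 20 min; Ex320/Em430; ΔFRET vs ADEP 5.8 microM, DMSO, no enzyme.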
# Sfp PPTase inh = inhibitors of Bacillus subtilis Sfp phosphopantetheinyl transferase. Q9F4F7. Biochemical Sfp PPTase activity, qHTS. hit rate 3.5% among 310,000. Potency, µM, inactives show max response, negative = inhibition, hits mostly inhibitors; active = well fitted inhibition curve with a large enough effect; inconclusive = small, poorly fitted or top-dose-only effect, or another doubt; inactive = no such curve, though single readings can be large or run the other way;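 also: the enzyme is Sfp with the accession as filed and its product quenches rhodamine fluorescence; potency is read from the fitted curve at half-maximal effect; 0% = enzyme reaction without inhibitor and -100% = no enzyme wells; top concentration of the series not given in the record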
#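 After 15 min at room temperature with compound, 15 nM Sfp received 5 uM rhodamine-CoA plus 12.5 uM BHQ-2-ybbR (50 mM Hepes pH 7.6, 10 mM MgCl2). Rate came from the fluorescence difference over 30 min, ex 525/em 598 nm.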
# gsp ag = gsp mutant agonism | gsp mutant cells, cAMP HTRF, 30 min; control for the full effect not named in the record | Potency, µM (titrated, usually from 76.9 µM), for the others: top-dose activation (cAMP increase), actives largely listed as activators | hit rate 0.13% among 340,000 | AID 624287; active = well fitted activation curve with a large enough effect; inconclusive = small, poorly fitted or top-dose-only effect, or another doubt; inactive = no such curve, though single readings can be large or run the other way; cell line not stated here;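 also: phosphodiesterase inhibitor Ro 20-1724 added with compounds to block cAMP breakdown; potency is read from the fitted curve at half-maximal effect; nearly all actives have a fitted effect of over 60% in size; about a fifth of the inactives were tested at one dose only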
#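 Cells in DMEM/10% FBS with G418 were pretreated with compounds in DMSO plus […] (300 uM stock) for 30 min at 37C. cAMP was measured by HTRF (cAMP-d2 plus anti-cAMP antibody-K) after 30 min at room temperature.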
# Menin-MLL FL inh = inhibitors of human menin-MLL interaction, wild-type MLL peptide | Fluorescence polarization, fluorescein-MLL peptide displacement from menin | AID 1766 | FP activity change, % at 61.4 µM | 290,000 tested, under 10 active; inconclusive = falling polarisation curve, or a change in total fluorescence; inactive = total fluorescence flat and polarisation flat or rising; no compound was filed as active; the % refers to the polarisation; negative = inhibition;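 also: % of control where 0% means no effect; inhibitors lower the polarisation; unlabelled MLL peptide was the positive control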
# D2 agonist = activates the human D2 dopamine receptor; P14416; DiscoveRx PathHunter D2 beta-arrestin, luminescence, 90 min; 100% = 57 uM dopamine signal; activation, % (no concentration beside the values); hit rate 0.084% among 360,000; AID 624465; in the data active = activation above about 40%; inconclusive = about 15% to 40%; inactive = below about 15%; also: compound concentration not given in the record; the text of the record calls up to 30% inactive
# Target sequence (P14416 whole entry, looked up): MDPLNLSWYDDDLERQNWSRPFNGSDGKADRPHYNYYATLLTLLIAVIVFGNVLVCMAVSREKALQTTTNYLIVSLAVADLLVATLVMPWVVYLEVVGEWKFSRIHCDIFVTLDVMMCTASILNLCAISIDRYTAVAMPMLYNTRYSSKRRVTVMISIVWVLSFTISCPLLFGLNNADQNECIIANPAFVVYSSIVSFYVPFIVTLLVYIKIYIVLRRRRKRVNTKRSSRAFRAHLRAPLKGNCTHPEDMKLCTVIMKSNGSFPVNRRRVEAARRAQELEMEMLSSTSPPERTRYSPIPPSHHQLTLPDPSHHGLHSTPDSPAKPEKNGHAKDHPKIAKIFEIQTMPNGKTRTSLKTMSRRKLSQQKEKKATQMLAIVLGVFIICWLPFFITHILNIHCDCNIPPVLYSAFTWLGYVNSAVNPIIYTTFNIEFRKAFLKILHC
#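 DiscoveRx PathHunter D2 beta-arrestin cells (2,100/well) attached overnight, then compound-stimulated 90 min at 37 C in HBSS/10 mM HEPES/0.1% Tween-20 buffer; beta-galactosidase complementation read by luminescence after 1 h at ambient temperature. Dopamine 57 uM final (EC100) as control.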
# PINK1 expr mod = changes PINK1 expression; PINK1 immunofluorescence, high-content cytometry, 24 h; Potency, µM (titrated, usually from 76.6 µM), without a hit: at the top dose activation (PINK1 increase), actives largely listed as activators; hit rate 0.2% among 410,000; AID 624263; active = well fitted activation curve with a large enough effect; inconclusive = small, poorly fitted or top-dose-only effect; inactive = flat fitted curve, though single readings scatter; cell line not stated here;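 also: potency is read from the fitted curve at half-maximal effect; % of control where 0% means no effect; nearly all actives have a fitted effect of over 65% in size; a mitochondrial uncoupler was the plate control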
#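 Fluorescence from anti-PINK1 antibody, together with nuclear and cell stains, was scanned on a laser-scanning cytometer. Before staining, stable-line cells were incubated 24 hours with compounds at 5 concentrations; primary antibody 12 h at 10 degrees C.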
# * hit, by the source's call; ? = inconclusive; . = not tested or not shown; [ ] = dose if it differs, or a comment.
# Second line of a record: gsp antag	ClpP mod	Sfp PPTase inh	gsp ag	Menin-MLL FL inh	D2 agonist	PINK1 expr mod
> CCOC(=O)CNC(=O)C(NC(=O)C1CCC(C)CC1)C(C)CC (stereo unspecified)
    -15%	-0.9%	7%	-3%	6.2	-1.4	0.8%
> CC(C)c1ccc(/C=C/C(=O)CCC(=O)O)cc1
    -28%	.	25%	-78%[inhibitor]	-0.3	-4.1	-1.5%
> COC(=O)c1ccc(CS(=O)(=O)c2ccccc2C)o1
    9%	0.2%	0%	12%	4.6	-0.7	1.8%[38.3 µM]
> O=C(NCCC1CCCCN1S(=O)(=O)c1ccccc1)C(=O)NCc1ccc(F)cc1 (stereo unspecified)
    -12%	.	.	-13%[15.4 µM]	.	-2.1	0.2%
> Cc1ccc(-c2cnc(C(O)c3cc(Cl)cc(Cl)c3)[nH]2)cc1 (stereo unspecified)
    .	1.4%	.	.	.	8.3	4.1%
> O=c1oc2ccccc2cc1-c1nnc(-c2cccc(Br)c2)o1
    7%	0.71µM*	6%	-5%	1.8	-2.6	0.2%
> COc1ccc(Br)cc1CNC(=O)C1CCN(c2nnc(N3CCCC3=O)s2)CC1
    -2%	0.8%	6%	21%	.	-1.3	0.1%
> Cc1nn(-c2ccccc2)c(Cl)c1/C=N/NC(=O)c1cccc(S(=O)(=O)N2CCCC2)c1
    -4%	-0.9%	0%	20%	-0.3	-4.2	14%
> COc1ccc2c(c1)sc1nc(=O)ccn12
    -1%	-0.6%	18%	2%[15.4 µM]	0.0	-4.9	2.5%
> COc1ccccc1-c1cc(C(F)(F)F)nc(S(=O)(=O)CCCC(=O)Nc2cc(C)on2)n1
    4%	467%	-4%	-32%[inhibitor]	-0.1	-0.3	-0.9%

# Single records (already shown). Order of screens: gsp antag | ClpP mod | Sfp PPTase inh | gsp ag | Menin-MLL FL inh | D2 agonist | PINK1 expr mod
# COC(=O)c1ccc(CS(=O)(=O)c2ccccc2C)o1 reads 9% | 0.2% | 0% | 12% | 4.6 | -0.7 | 1.8%[38.3 µM]
# O=C(NCCC1CCCCN1S(=O)(=O)c1ccccc1)C(=O)NCc1ccc(F)cc1 (stereo unspecified) reads -12% | . | . | -13%[15.4 µM] | . | -2.1 | 0.2%

# New compounds follow
# Second line of a record: gsp antag	ClpP mod	Sfp PPTase inh	gsp ag	Menin-MLL FL inh	D2 agonist	PINK1 expr mod
> O=C(NNC(=O)c1cc2cc(Br)ccc2oc1=O)c1ccc(O)cc1O
    ?	.	-25%	20%[15.4 µM]	0.2	1.1	0.3%
> COc1ccc(Cn2c(SC)nc3ccccc32)cc1[N+](=O)[O-]
    ?	1.2%	6%	11%	2.7	1.8	6.2%[38.3 µM]
> COc1ccc(N2CCN(S(=O)(=O)c3ccc4c(c3)NC(=O)CC(=O)N4)CC2)cc1
    3%	0.7%	6%	?	.	-2.4	2.0%
> [O-]/[N+](=C\c1ccncc1)c1ccccc1
    -2%	-8.4%	-28%	-4%	2.2	0.0	-0.4%
> Cn1cccc1P(=O)(c1cccn1C)c1cccn1C
    -1%	-0.5%	1%	-23%	3.2	0.6	.
> COc1ccc(S(=O)(=O)N2CCN(S(=O)(=O)c3ccc4c(c3)OCCO4)CC2)cc1
    -3%	0.5%	23%	-27%	5.3	-1.2	10%
> Cc1cc(C)n(-c2nc(NC(C)(C)C)nc(NC(C)(C)C)n2)n1
    -6%	1.2%	9%	0%	4.1	-1.4	0.8%
> CC(Oc1ccccc1[N+](=O)[O-])C(=O)N/N=C/c1ccoc1 (stereo unspecified)
    -3%	-3.0%	9%	-34%[inhibitor]	.	2.2	-1.2%
> CC#CCN(Cc1ccco1)C(=O)C1CCC(=O)N(CCc2cccc(F)c2)C1 (stereo unspecified)
    .	1.0%	.	-49%[inhibitor]	.	1.6	0.1%
> COc1ccc(C(=O)Nc2ccnn2C2CCN(C(=O)c3cc(C)on3)CC2)cc1
    -5%	-2.5%	12%	-8%	.	-0.3	1.4%
> COc1cc(/C=N/NS(=O)(=O)c2ccc(C)cc2)ccc1OCc1cccc(C(=O)O)c1
    -12%	.	9%	18%	-7.8	-1.1	-1.5%
> Cc1cc(C)cc(-n2nnnc2SCC(=O)N2CCOCC2)c1
    0%	-0.4%	1%	0%	4.7	1.8	-0.7%
> CN(C(=O)CSc1nc2ccccc2c(=O)n1-c1ccc(F)cc1)C1CCS(=O)(=O)C1 (stereo unspecified)
    2%	-3.2%	.	?	.	8.8	1.3%
> COc1ccc(/C=N\NC(=O)COc2ccc(Cl)cc2Cl)c(C(=O)O)c1OC
    12%	0.6%	30%[activator]	-5%[15.4 µM]	1.0	-4.8	-1.2%
> O=C(O)CSCC(=O)NCc1c(Cl)cccc1Oc1ccccc1
    5%	1.4%	18%	9%	1.2	-5.3	2.5%
> Cn1c(=O)c2c(nc(N3CCCCCC3)n2Cc2cccc3ccccc23)n(C)c1=O
    0%	-0.7%	?	3%[15.4 µM]	0.3	-1.5	2.5%
> COc1cc(C(=O)NCCNc2nc3c(C)c(C)ccc3cc2C#N)cc(OC)c1OC
    2%	-22%	-14%	2%	4.9	-2.7	5.2%
> Cc1ccc(-c2cc(C(=O)N/N=C/c3cccnc3)c3ccccc3n2)cc1C
    ?	-16%	.	6%	.	-1.8	1.7%
> COc1ccccc1N1CCN(C(=O)c2ccc(S(=O)(=O)N3CCCC3)cc2)CC1
    -4%	0.6%	0%	-28%	2.0	-2.5	7.4%
> COc1ccc(OC)c2[nH]c(=O)c(CCNC(=O)COc3ccccc3)cc12
    9%	-1.4%	11%	-35%[inhibitor]	-0.9	-1.7	-0.7%
> COc1ccccc1NC(=O)C/C(C)=N/NC(=O)COc1c(Br)cc(Br)cc1OC
    -9%	-2.1%	-2%	3%[15.4 µM]	-0.6	-6.9	3.4%
> NCc1csc(Nc2ccc(C(=O)c3ccccc3)cc2)n1
    .	-3.9%	.	.	.	-4.5	6.1%
> COc1ccc(-c2cc(C(F)(F)F)nc(SCCC(=O)NCc3ccco3)n2)cc1
    32%[activator]	?	-3%	-23%	1.3	-2.9	3.6%
> Cc1nc(/C(N)=N/OC(=O)c2c(-c3ccccc3Cl)noc2C)cs1
    2%	.	20%	-5%[15.4 µM]	0.9	?	-0.8%
> COc1ccc(-c2nc(-c3ccccc3)no2)c(OC)c1
    -13%	-19%	-27%	-37%[inhibitor]	-0.4	-0.4	5.3%[38.3 µM]
> CCN(CC(=O)Nc1ccc(OC)cc1)C(=O)c1oc2c(Cl)cccc2c1C
    -18%	.	.	3%[15.4 µM]	.	-2.9	9.6%
> O=C(c1ccco1)N1CCC2(CC1)CN(c1cccc(-c3ccccc3)c1)C2
    .	.	?	.	4.9	.	-0.4%
> CS(=O)(=O)N1N=C(c2ccco2)CC1c1ccccc1 (stereo unspecified)
    11%	1.6%	-19%	-1%	-4.3	-2.7	-1.8%
> CCCCn1c(SCC(=O)N2CCC(C)CC2)nc2ccsc2c1=O
    -21%	-2.5%	-13%	-44%[inhibitor]	3.1	4.3	-12%[38.3 µM]
> C=CCCC(=O)N1C[C@H]2CCN(C)[C@H]2C[C@H]1c1ccc(Br)cc1
    .	-5.7%	.	.	.	-5.7	-0.2%
> Cc1onc(-c2c(F)cccc2Cl)c1C(=O)ONC(=O)c1ccccc1
    ?	.	14%	-17%	-3.2	-4.3	0.5%
> O=C(O)C1C2C=CC3(CN(Cc4ccncc4)C(=O)C13)O2 (stereo unspecified)
    12%	-0.7%	24%	2%	3.4	0.1	-2.2%
> COCCn1c(SCC(=O)Nc2ccccc2)nnc1-c1ccoc1C
    11%	.	19%	24%	5.2	3.0	2.3%
> COc1cccc(OCCNc2cc(N3CCCCC3)ccc2[N+](=O)[O-])c1
    -18%	-8.9%	-3%	-1%	0.0	-6.4	-0.5%
> O=C(O)c1ccc(Cl)cc1NC(=O)C1CCCO1 (stereo unspecified)
    -2%	-12%	15%	-13%	-0.1	1.6	1.7%[38.3 µM]
> CC(=O)Nc1ccc(S(=O)(=O)N2CCN(c3ncccn3)CC2)cc1
    ?	-12%	13%	11%	0.9	-1.8	-0.8%
> COc1ccc(/C=C(\C#N)C(=O)N=CN(C)C)cc1
    4%	.	22%	-10%[15.4 µM]	-0.1	-7.5	4.4%
> CCCCN1CC(C(=O)NC2CCCCC2)CC1=O (stereo unspecified)
    3%	-4.5%	8%	4%	2.1	-1.3	-0.9%
> Cc1nn(C)c(Oc2cccc(Cl)c2)c1C(=O)O
    -9%	1.4%	4%	9%	-1.4	-0.7	-1.3%
> C/C(=N/NC(=O)CNC(=O)c1cccnc1)c1ccccc1
    ?	1.2%	14%	?	-18	-5.3	2.8%
> O=C(COc1ccc(Cl)cc1Cl)NCCC1=CCCCC1
    -23%	1.0%	-17%	-4%	-0.2	-0.3	4.3%
> COc1ccc(S(=O)(=O)N(C)CC(=O)NC2CCCCC2)cc1OC
    -4%	-0.8%	23%	-38%[inhibitor]	3.9	-0.9	-0.5%[38.3 µM]
> O=C(CC1SC(=Nc2cccc3ccccc23)N(Cc2ccccn2)C1=O)Nc1ccccc1Br (stereo unspecified)
    0%	-4.0%	6%	10%	8.0	-0.4	2.0%
> O=C(COc1ccc(Cl)cc1Cl)NN1C(=O)C2C3C=CC(C3)C2C1=O (stereo unspecified)
    4%	.	20%	4%[15.4 µM]	1.3	-5.1	-1.1%
> COc1ccc(C2COC(=O)C2=N)c(NC(=O)c2ccccc2)c1 (stereo unspecified)
    1%	0.6%	14%	-25%	.	-1.9	-3.0%
> COc1ccc(OC)c(NC(=O)CSc2nnc(Cn3nnc4ccccc43)n2C)c1
    15%	-0.3%	5%	12%	-0.4	-1.7	-0.1%
> O=S(=O)(NC(=S)NC1CCCCC1)c1ccc(Cl)cc1
    -1%	-1.0%	-16%	-73%[inhibitor]	-3.3	-11	-0.4%
> COc1cnc(-c2ccccn2)nc1Sc1cccc(Cl)c1
    12%	-7.6%	-4%	0%	2.5	-1.3	-5.8%[38.3 µM]
